Lassa entry inh: blocks Lassa virus binding to or entry into cells | Lassa virus pseudotype entry inhibition, cell reporter; control for the full effect not named in the record | AID 540256 | Potency, µM (doses to about 37.9 µM), for the others: at the highest dose activity change, negative = inhibition, most hits filed as inhibitors | 300,000 tested, 1.2% active; active means well fitted inhibition curve with a large enough effect; inconclusive means small, poorly fitted or top-dose-only effect, or effect the other way; inactive means flat fitted curve, though single readings scatter; tested in HEK293 cells; also: % is scaled to controls: 0 for no effect and ±100 for the full control effect; nearly all actives have a fitted effect of over 50% in size; luciferase read-out
Cruzain inh noDet: blocks cruzain activity in detergent-free assay | 200,000 tested, 2.3% active | purified cruzain, Z-FR-AMC fluorescence, no detergent | P25779 | Potency, µM, inactives show max response, negative = inhibition, actives largely listed as inhibitors;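 also: plate controls were enzyme without inhibitor for no effect and buffer without enzyme for full effect; nearly all actives have a fitted effect of over 40% in size; top concentration of the series not given in the record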
Target sequence (P25779 123-467 limits assumed): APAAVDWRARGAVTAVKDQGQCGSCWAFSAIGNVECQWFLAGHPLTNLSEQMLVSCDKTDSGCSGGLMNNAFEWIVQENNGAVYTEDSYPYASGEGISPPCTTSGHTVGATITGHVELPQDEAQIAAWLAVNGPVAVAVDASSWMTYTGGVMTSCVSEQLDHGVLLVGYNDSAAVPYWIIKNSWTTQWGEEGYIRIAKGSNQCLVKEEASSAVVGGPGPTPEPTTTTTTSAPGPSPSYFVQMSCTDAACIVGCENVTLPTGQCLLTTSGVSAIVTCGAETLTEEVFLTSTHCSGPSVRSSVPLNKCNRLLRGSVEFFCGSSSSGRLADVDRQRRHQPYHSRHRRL
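Detergent-free condition (0.00005% Triton X-100) in acetate buffer pH 5.5 with DTT. 1.5 nM enzyme and compound were pre-mixed 15 min, then 2 uM Z-FR-AMC substrate added; reaction progress from fluorescence change between first and third reads (60 s).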
NS1 function inh: blocks influenza NS1 protein function; AID 2326; 270,000 tested, 0.4% active; Potency, µM (doses to about 46.1 µM), for inactives: at the highest dose activity, positive = more growth; S. cerevisiae slowed by influenza A NS1, growth recovery by OD600; active means well fitted rising curve with a large enough effect; inconclusive means small, poorly fitted or top-dose-only effect; inactive means no such curve, though single readings can be large or run the other way; also: nearly all actives have a fitted effect of over 50% in size
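A cell-based growth assay was used: compounds that relieve NS1-induced slow growth of budding yeast raise OD600. Assay medium was yeast nitrogen base with ammonium sulphate and -URA supplement, pH 6.0, with 2% galactose.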
Marburg entry inh: Marburg virus entry inhibition | 300,000 tested, 1.8% active | Potency, µM (doses to about 37.8 µM), for the others: at the highest dose activity change, negative = inhibition, most hits filed as inhibitors | Marburg virus pseudotyped entry inhibition, cell reporter; control for the full effect not named in the record; about a third of the inactives were read at about 46 µM; active = well fitted inhibition curve with a large enough effect; inconclusive = small, poorly fitted or top-dose-only effect, or effect the other way; inactive = flat fitted curve, though single readings scatter; tested in HEK293 cells; about a fifth of its hits are not listed in these tables; also: % is scaled to controls: 0 for no effect and ±100 for the full control effect; luciferase read-out
SARS PLpro yeast: blocks SARS-CoV papain-like protease in a yeast assay; S. cerevisiae expressing SARS-CoV PLpro, growth rescue; control for the full effect not named in the record; Potency, µM (titrated, usually from 32.9 µM), for the others: at the top dose activity, positive = growth rescue; 330,000 tested, 0.19% active; AID 485353; active means well fitted rising curve with a large enough effect; inconclusive means small, poorly fitted or top-dose-only effect; inactive means no such curve, though single readings can be large or run the other way; also: 0% is about no effect; nearly all actives have a fitted effect of over 55% in size; growth read by luminescence after 48 h
RE007 growth inh: less growth of the S. pombe RE007 Vpr strain | S. pombe RE007 Vpr strain, BacTiter-Glo ATP luminescence, 24 h; control for the full effect not named in the record | Potency, µM (series often up to 92.2 µM), inactives show at the top dose activity change, negative = less growth | 360,000 tested, 0.21% active; active = well fitted falling curve with a large enough effect; inconclusive = small, poorly fitted or top-dose-only effect; inactive = no such curve, though single readings can be large or run the other way;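 also: % is scaled to controls: 0 for no effect and ±100 for the full control effect; nearly all actives have a fitted effect of over 50% in size; the assay follows cell death caused by Vpr and the record does not say whether a fall means rescue or toxicity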
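Fission yeast RE007 carrying one integrated HIV-1 vpr copy, seeded at OD 0.01 in PMG+AL medium with 23 nL pinned compound. Grown 24 h at 30 degrees; viability read by BacTiter-Glo luminescence after 5 min.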
Cruzain inh Det: inhibitors of Trypanosoma cruzi cruzain with detergent; P25779; purified cruzain, Z-FR-AMC fluorescence, 0.01% Triton; Potency, µM, for inactives: max response, negative = inhibition, hits mostly inhibitors; 200,000 tested, 0.43% active; AID 1478;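 also: plate controls were neutral wells for no effect and buffer without enzyme for full effect; nearly all actives have a fitted effect of over 40% in size; top concentration of the series not given in the record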
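Cysteine protease activity tested under reducing, mildly acidic conditions (100 mM sodium acetate pH 5.5, 5 mM DTT) plus 0.01% Triton X-100. Cruzain 1.5 nM; substrate Z-FR-AMC 2 uM; 15 min compound preincubation at room temperature.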
2A StopGo: lowers the luciferase signal of an FMDV 2A StopGo reporter; human cells with a luciferase reporter of 2A StopGo recoding; control for the full effect not named in the record; Potency, µM (titrated, usually from 57.9 µM), without a hit: at the highest dose signal change, negative = less light; 410,000 tested, 1.2% active; AID 1159524; active = well fitted falling curve with a large enough effect; inconclusive = small, poorly fitted or top-dose-only effect; inactive = no such curve, though single readings can be large or run the other way; tested in HEK293T cells; also: % is scaled to controls: 0 for no effect and ±100 for the full control effect; nearly all actives have a fitted effect of over 45% in size; luciferase light after 4 h
An asterisk follows results filed as active; ? = inconclusive; / = no result given; & = joins results of further samples; [ ] = another dose, or the depositor's remark. Unless noted, calls follow the shape of the dose curve; as a rule, active = well fitted curve in the direction sought with a large enough effect; inconclusive = small, poorly fitted or top-dose-only effect, or another doubt; inactive = no such curve, though single readings can be large; an effect the other way counts as inactive or inconclusive. Potency is read from the fitted curve at half-maximal effect.

molecule | Lassa entry inh | Cruzain inh noDet | NS1 function inh | Marburg entry inh | SARS PLpro yeast | RE007 growth inh | Cruzain inh Det | 2A StopGo
O=C(Nc1ccccc1C(F)(F)F)N1CCN(c2ccc3nnc(-c4ccc(F)cc4)n3n2)CC1 | -24% | ? | 5% | ? | 8% | -11% | -6.8%&-5.9% | -18%&-14%
CC(C)(C)c1ccc(C(=O)Nc2nnc(SCC(=O)NCC3CCCO3)s2)cc1 (stereo not drawn) | / | / | 5% | / | 10% | -3% | / | ?
COc1cc2c(cc1OC)C(C(=O)NCCN(C)C)C(c1cccs1)N(C)C2=O (stereo not drawn) | 12%[46.1 µM] | / | / | 1%[46.1 µM] | 7% | -7% | / | -18%
COCCNC(=O)Cn1ncc2c(C)n(Cc3ccc(C)cc3)c(C)c2c1=O | -3%[46.1 µM] | 2% | / | -28%[46.1 µM] | / | / | -2.4% | -11%
CCC(Oc1ccccc1)C(=O)O/N=C(\N)c1ccc(OC)c(OC)c1 (stereo not drawn) | 14% | -5% | 11% | -7% | -21% | -10% | -2.8% | -13%
O=C(CN1C(=O)/C(=C/c2ccccc2Cl)SC1=S)NC1C=CS(=O)(=O)C1 (stereo not drawn) | -16%[46.1 µM] | / | -2% | ? | 2% | -6% | / | -12%
O=C(Nc1ccccc1C(=O)N1CCOCC1)C1CCC(=O)N1C1CCCC1 (stereo not drawn) | 8% | 7% | 2% | 23% | 2% | -5% | 0.8% | -19%
CCc1ccc(NC(=S)N(CCCN2CCOCC2)Cc2ccccn2)cc1 | 9% | 0% | 8% | 2% | -9% | -7% | 7.8% | 11%
CCOc1ccc(-c2cn3c(n2)sc2cc(C(=O)N4CCCC(C)C4)ccc23)cc1 (stereo not drawn) | / | 4% | / | 13%[46.1 µM] | / | / | -4.9% | ?
Cc1ccc(C2C3=C(CCCC3=O)Nc3nc(SCC(=O)NCc4ccco4)[nH]c(=O)c32)cc1 (stereo not drawn) | 7% | -17% | 3% | 5%&-6% | 6% | 7% | -14% | -7%
Cc1cc(=O)oc2c1c(C)nn2-c1ccc(C(=O)OC(C)C)cc1 | / | 3% | 15% | / | -14% | / | -0.9% | /
CCOC(=O)C1=C(N)n2c(s/c(=C\c3cccnc3)c2=O)=C(C(=O)OC)C1c1cccnc1 (stereo not drawn) | ? | / | / | 1% | / | -17% | / | -18%
O=C(CSc1ccc2ccccc2c1)Nc1ncccn1 | 0% | -10% | -4% | 11% | -25% | -16% | -2.9% | -5%
OC(COCC1COc2ccccc2O1)CN1CCN(c2ccccn2)CC1 (stereo not drawn) | -12%[46.1 µM] | -7% | 0% | -5%[46.1 µM] | 1% | -1%&-19% | 2.0% | -5%&-22%
O=C(O)c1ccccc1/C=N/NC(=S)NCc1ccccc1 | -12% | / | 10% | 9% | 0% | -2% | / | 1%
Oc1cccc(-c2nc3ccc4ccccc4c3c3c2CCC3)c1 | 12% | 5% | -147% | 9% | -44% | -15% | -29% | 38%[activator]
COc1ccccc1CNC(=O)CCC1N=C2c3ccccc3N=C(SCC(=O)NCCc3ccc(OC)c(OC)c3)N2C1=O (stereo not drawn) | 14%[46.1 µM] | ? | / | / | / | / | -1.6% | 0%
O=S(=O)(Nc1cccc(-n2cnnn2)c1)c1ccc(Cl)cc1 | ? | / | 17% | -20%[46.1 µM] | -4% | -25% | / | 10%
Nc1ccc2nc(CCc3ccccc3)[nH]c2c1 | ? | -8% | 23% | ? | -16% | -12% | -2.4% | 76%[activator]
COc1ccc(Cn2nnc3c(C)n[nH]c(=O)c32)cc1 | -3%[46.1 µM] | / | 1% | 0%[46.1 µM] | 0% | -15% | / | -3%
O=C(NCCc1ccc(Cl)cc1)C1CCN(S(=O)(=O)N2CCCC2)CC1 | -17% | -5% | -5% | 2% | 3% | -11% | -0.2% | /
O=C(CN1CCOCC1)N1c2ccccc2Sc2ccccc21 | / | / | 5% | / | -1% | -3% | / | -1%
Cn1nccc1NC(=O)Nc1cccc([N+](=O)[O-])c1 | / | / | 1% | / | -3% | 2% | / | 20%
Cc1csc2nc(COC(=O)c3cccc(NC(=O)c4cccc(Cl)c4)c3)cc(=O)n12 | 1%[46.1 µM] | -7% | / | / | / | / | 0.8% | -14%
CC1CC(C)(C)NC(=S)N1CCCC(=O)Nc1ccc(F)c(F)c1 (stereo not drawn) | -7%[46.1 µM] | / | 6% | -1%[46.1 µM] | 3% | 5% | / | -16%
Cc1ccc(S(=O)(=O)NCCNC(=O)CN2CCCC2)cc1 | -11% | 17% | -2% | 1% | 1% | -8% | 5.3% | 7%
CN(C(=S)Nc1ccc(SC(F)F)cc1)C(c1ccccc1)c1ccccc1 | / | / | 5% | / | -4% | -17% | / | -13%
COC(=O)Nc1ccc2c(c1)N(C(=O)CCN1CCN3CCCC3C1)c1ccccc1S2 (stereo not drawn) | -11% | 6% | -11% | ? | -4% | -10% | -2.6% | -13%
CCC(=O)N1CCc2cc(Br)cc(S(=O)(=O)NCc3ccc(Cl)cc3)c21 | -1%[46.1 µM] | 5% | / | -18%[46.1 µM] | / | / | -2.7% | 56%[activator]
COCC(C)NC(=O)c1ccc(Cl)c(Cl)c1 (stereo not drawn) | -4% | 7% | -10% | 12% | -27% | 5% | -1.9% | -18%
CSc1sc(C)cc1C1C(C#N)=C(N)N(c2cccnc2)C2=C1C(=O)CCC2 (stereo not drawn) | 6% | -10% | -1% | -6% | -15% | 0% | -1.2% | /
Cc1ccc(S(=O)(=O)N2CCN(Cc3nc4ccccc4[nH]3)CC2)cc1C | -23% | 2% | -7% | -9% | -5% | -1% | -3.4% | -23%
COc1cc(C2SCC(=O)Nc3c2c(=O)[nH]n3C2CCCCCC2)cc(OC)c1OC (stereo not drawn) | -4% | ? | -28% | ? | 2% | -9% | -0.5% | 7%
COc1cccc(-c2nc3ccc([N+](=O)[O-])cc3o2)c1 | ? | / | / | ? | 0% | 16% | / | 82%[activator]
Cc1cc2occ(CC(=O)N(CCC(C)C)c3c(N)n(Cc4ccccc4)c(=O)[nH]c3=O)c2cc1C | ? | / | / | -2%[46.1 µM] | 1% | -6% | / | -12%
C=CC(C)(C)c1[nH]cnc1/C=C1\NC(=O)C(C(C)C)NC1=O (stereo not drawn) | / | / | 14% | / | 0% | 10% | / | -9%
Cc1ccc(-n2nnc3c(=O)n(CC(=O)NCc4ccco4)cnc32)cc1 | / | -16% | -2% | / | -6% | 9% | -0.1% | -14%
COc1ccc(N2CC(C(=O)N(CC(C)C)c3c(N)n(Cc4ccccc4)c(=O)[nH]c3=O)CC2=O)c(OC)c1 (stereo not drawn) | -6% | / | / | -1%[46.1 µM] | -2% | -10% | / | 16%
COc1ccc2c(c1)OC(O)(C(F)F)CC2=O (stereo not drawn) | -7% | 1% | 3% | -2% | 1% | 5% | 4.4% | -20%
O=c1[nH]c(C2CCN(S(=O)(=O)c3ccc(S(=O)(=O)NC4CC4)cc3)CC2)nc2c1nnn2Cc1ccc(F)cc1 | 10% | / | ? | ? | 2% | 4% | / | 12%
Cc1ccc(C2C3CN(C(C)C)CC=C3C(C#N)=C(N)C2(C#N)C#N)cc1 (stereo not drawn) | -16% | -7% | 24% | 3%&5% | 1% | -9% | -7.1% | -19%
Cc1cccc(NC(=S)NN2CCOCC2)c1C | 6% | 2% | 7% | ? | 12% | 21% | 6.9% | -14%
O=C(NC(Cc1c[nH]c2ccccc12)C(=O)N/N=C/c1cccc2ccccc12)c1cccs1 (stereo not drawn) | ? | ? | ? | ? | 12% | 13% | -3.7% | ?
O=C(CCS(=O)(=O)Cc1ccccc1)Nc1ccc2c(c1)OCCO2 | 4% | / | 0% | 2%[46.1 µM] | 1% | 4% | / | 3%
C/C(=C\c1ccco1)CN1CCN(Cc2ccc(C)o2)C(CCO)C1 (stereo not drawn) | 1% | / | -1% | -10%[46.1 µM] | 0% | -3% | / | -6%
O=C(CC12CC3CC(C1)CC(CC(=O)NC1=NCCS1)(C3)C2)NC1=NCCS1 | ? | 25µM* | -6% | -12% | 1% | -13% | -7.3% | -19%
CCCCc1nn2c(=O)cc(COC(=O)c3ccc(NC(=O)CCc4ccccc4)cc3)nc2s1 | 11%[46.1 µM] | -10% | / | / | / | / | 0.5% | 2%
CCCCN(C)C(=O)c1nc2ccccn2c1CN1CCN(C/C=C/c2ccccc2)CC1 | -1% | / | -2% | ? | 0% | -12% | / | ?
COc1ccc(OC)c(S(=O)(=O)N2CCC(C(=O)N3CCCCCC3)CC2)c1 | 9% | / | -3% | 2%[46.1 µM] | 0% | 1% | / | 26%
COC(=O)c1onc(-c2c(C)cc(C)cc2C)c1C(=O)OC | 20% | -4% | -45% | 13% | -10% | -2% | 11% | 0%
COc1ccc2cc3cc(C(=O)Nc4cc(OC)c(OC)c(OC)c4)oc3nc2c1 | ? | 16% | 7% | -30% | 1% | -10% | -0.5% | ?
COc1ccc(C(CCN(Cc2ccc(OC)c(OC)c2)C(C)=O)c2ccccc2)cc1 (stereo not drawn) | / | ? | -3% | 4% | 12% | 16% | -6.0% | ?
O=S(=O)(NCc1cccnc1)c1ccc(Cl)s1 | 8% | -1% | 6% | -7% | 0% | -7% | 0.9% | 53%[activator]

Three compounds picked at random from those above:
molecule | Lassa entry inh | Cruzain inh noDet | NS1 function inh | Marburg entry inh | SARS PLpro yeast | RE007 growth inh | Cruzain inh Det | 2A StopGo
CSc1sc(C)cc1C1C(C#N)=C(N)N(c2cccnc2)C2=C1C(=O)CCC2 (stereo not drawn) | 6% | -10% | -1% | -6% | -15% | 0% | -1.2% | /
COCC(C)NC(=O)c1ccc(Cl)c(Cl)c1 (stereo not drawn) | -4% | 7% | -10% | 12% | -27% | 5% | -1.9% | -18%
O=C(CCS(=O)(=O)Cc1ccccc1)Nc1ccc2c(c1)OCCO2 | 4% | / | 0% | 2%[46.1 µM] | 1% | 4% | / | 3%

Screening results deposited in PubChem by National Center for Advancing Translational Sciences (NCATS).
